# ClpP mod – qHTS Assay for Activators of ClpP; ATP-dependent Clp protease proteolytic subunit (Bacillus subtilis (strain 168)), P80244; Potency, µM (series often up to 57.5 µM), for inactives: top-dose activity change, negative = active; 1.9% of 340,000 active; purified B. subtilis ClpP, FRET peptide cleavage, 20 min; active = well fitted falling curve with a large enough effect; inconclusive = small, poorly fitted or top-dose-only effect; inactive = no such curve, though single readings can be large or run the other way; also: potency is read from the fitted curve at half-maximal effect; the source files actives as falling curves though it sought activators and does not explain the sign; nearly all actives have a fitted effect of over 65% in size; many hits overshoot -100%
#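 ClpP 10 microg/mL final, pH 8 Tris/KCl buffer with BSA, glycerol, Tween-20; compound pinned in; FRET-FV substrate; RT 20 min; Ex320/Em430; ΔFRET vs ADEP 5.8 microM, DMSO, no enzyme.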
# TRPML1 inh – inhibitors of human TRPML1 channel | Q9GZU1 | TRPML1-inducible cells, Ca2+ dye fluorescence, FDSS; hits give low values; inhibition of EC80 agonist-evoked calcium signal | activity change, negative = inhibition, % (concentration not given with the values) | 0.02% of 390,000 active | AID 624415; in the data active means activity change below about -50%; inconclusive means about -30% to -50%; inactive means above about -30%;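 also: stimulus is agonist 54-4 at its EC80 concentration; % is scaled to controls: 0 for no effect and ±100 for the full control effect; compound concentration not given in the record; the text of the record puts the active cut at -80%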
#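 TRPML1-DL cells, Tet-induced overnight (~16 h, 37 °C) at 1,500 cells/well, were loaded with Ca8 no-wash dye plus quencher for 45-90 min at room temperature. Compounds were pinned during FDSS kinetic reading; agonist 54-4 at EC80 (4 uM final) then added.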
# Sfp PPTase inh – blocks B. subtilis Sfp PPTase activity; Biochemical Sfp PPTase activity, qHTS; AID 1490; 3.5% of 310,000 active; Q9F4F7; Potency, µM, inactives show max response, negative = inhibition, actives largely listed as inhibitors; active = well fitted inhibition curve with a large enough effect; inconclusive = small, poorly fitted or top-dose-only effect, or another doubt; inactive = no such curve, though single readings can be large or run the other way;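 also: the enzyme is Sfp with the accession as filed and its product quenches rhodamine fluorescence; potency is read from the fitted curve at half-maximal effect; 0% = enzyme reaction without inhibitor and -100% = no enzyme wells; top concentration of the series not given in the record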
#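 Buffer: 50 mM Hepes-Na pH 7.6, 10 mM MgCl2, 0.01% Nonidet P-40, 0.01% BSA. Enzyme 15 nM, pre-exposed to compound 15 min; substrates then added and fluorescence change tracked over 30 min.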
# PINK1 modulator – PINK1 expression modulation | 0.2% of 410,000 active | AID 624263 | PINK1 immunofluorescence, high-content cytometry, 24 h | Potency, µM (doses to about 76.6 µM), without a hit: at the top dose activation (PINK1 increase), actives largely listed as activators; active = well fitted activation curve with a large enough effect; inconclusive = small, poorly fitted or top-dose-only effect; inactive = flat fitted curve, though single readings scatter; cell line not stated here;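 also: potency is read from the fitted curve at half-maximal effect; % of control where 0% means no effect; nearly all actives have a fitted effect of over 65% in size; a mitochondrial uncoupler was the plate control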
#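 PINK1 protein, normally rapidly degraded, was detected by immunofluorescence after 24 hour compound treatment of a stable cell line. Titration data (5 concentrations) came from laser-scanning cytometry, with CCCP-treated wells as controls.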
# TRPML1 ag – agonists of human TRPML1 channel; activation, % (no concentration beside the values); Q9GZU1; TRPML1-expressing cells, Ca2+ dye fluorescence, FDSS; host cell line not named in the record; reference of the full effect not given here; 0.12% of 410,000 active; in the data active = activation above about 50%; inconclusive = about 30% to 50%; inactive = below about 30%; also: 0% is about no effect; the text of the record puts the active cut at 80%
#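 TRPML1-DL cells, Tet-induced overnight (~16 h, 37 degrees C), loaded 45-90 min at room temperature with Ca8 no-wash calcium dye plus quencher. FDSS fluorescence: 10 s baseline, compound pin-transfer, 110 s agonist read, then EC80 54-4 (4uM final) and 110 s antagonist read.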
# Menin-MLL FL inh – menin-MLL binding inhibition, fluorescein peptide; 290,000 tested, under 10 active; Fluorescence polarization, fluorescein-MLL peptide displacement from menin; FP activity change, % at 61.4 µM; inconclusive = falling polarisation curve, or a change in total fluorescence; inactive = total fluorescence flat and polarisation flat or rising; no compound was filed as active; the % refers to the polarisation; negative = inhibition;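 also: % of control where 0% means no effect; inhibitors lower the polarisation; unlabelled MLL peptide was the positive control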
# TRPV1 PAM – potentiators of human vanilloid receptor 1 (TRPV1). Q8NER1. 0.02% of 320,000 active. TRPV1-expressing cells, Fluo-8 calcium influx, capsaicin EC20 potentiation; host cell line not named in the record; control for the full effect not named in the record. AID 540277. potentiation, % at 8.33 µM; active means potentiation above 80%; inconclusive means 30% to 80%; inactive means below 30%; also: 0% is about no effect
# Target sequence (Q8NER1 whole entry, looked up): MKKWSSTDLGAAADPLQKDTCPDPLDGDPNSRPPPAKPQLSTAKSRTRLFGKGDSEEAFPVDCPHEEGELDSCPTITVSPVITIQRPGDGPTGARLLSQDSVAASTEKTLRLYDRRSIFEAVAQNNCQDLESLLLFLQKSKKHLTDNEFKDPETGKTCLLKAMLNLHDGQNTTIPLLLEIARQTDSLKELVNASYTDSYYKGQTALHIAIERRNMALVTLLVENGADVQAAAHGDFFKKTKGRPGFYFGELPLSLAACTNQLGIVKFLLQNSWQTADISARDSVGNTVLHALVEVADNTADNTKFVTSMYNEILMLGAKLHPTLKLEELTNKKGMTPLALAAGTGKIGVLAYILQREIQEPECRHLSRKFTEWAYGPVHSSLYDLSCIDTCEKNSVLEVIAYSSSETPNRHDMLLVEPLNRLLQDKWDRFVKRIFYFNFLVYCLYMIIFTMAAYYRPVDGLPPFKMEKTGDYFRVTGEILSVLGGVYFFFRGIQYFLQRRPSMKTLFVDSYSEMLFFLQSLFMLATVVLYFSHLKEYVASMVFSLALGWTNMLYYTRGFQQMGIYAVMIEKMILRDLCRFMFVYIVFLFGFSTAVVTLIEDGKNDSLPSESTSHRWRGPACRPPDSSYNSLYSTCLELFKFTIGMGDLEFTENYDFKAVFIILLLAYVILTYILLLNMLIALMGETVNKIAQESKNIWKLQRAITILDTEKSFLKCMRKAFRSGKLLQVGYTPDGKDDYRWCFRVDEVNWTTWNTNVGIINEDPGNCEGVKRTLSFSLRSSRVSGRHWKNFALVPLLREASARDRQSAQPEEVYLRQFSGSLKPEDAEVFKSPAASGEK
#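 TRPV1-expressing cells were cultured overnight at 35.5C and loaded with Fluo-8 calcium dye for 40 to 90 min at room temperature. After a 10 s baseline, compound was added and calcium influx was read kinetically for 3 min (ex 480/em 520 nm).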
# Active calls of the source: *; ? = inconclusive; . = not tested or not shown; [ ] = dose if it differs, or a comment. Hits appear at their usual frequency. About 4.4% of those tested had a hit in this group.
smiles | ClpP mod | TRPML1 inh | Sfp PPTase inh | PINK1 modulator | TRPML1 ag | Menin-MLL FL inh | TRPV1 PAM
CCNC(=O)Cn1c(=O)c2c(ncn2Cc2ccccc2)n(Cc2ccccc2)c1=O | -3.0% | 7 | -11% | 6.1%[38.3 µM] | -0.1 | 2.0 | 3
O=C(c1ccccc1)N1CCN(C(=O)N2CCOCC2)CC1 | 1.0% | 4 | 5% | -1.9% | -0.2 | 1.2 | -13
CCOc1ccc(S(=O)(=O)N2CCCC(C(=O)N3CCOCC3)C2)cc1Cl (configuration not stated) | . | 12 | 11% | -2.8% | -0.3 | -1.0 | -11
O=C(N/N=C/c1cccc([N+](=O)[O-])c1)c1cc2c(ccc3ccccc32)o1 | -4.2% | 8 | 3% | 10% | -0.3 | -1.6 | -7
Cc1cn2c(=O)cc(COC(=O)c3cccc(NC(=O)c4ccc(C(C)(C)C)cc4)c3)nc2s1 | -12% | 6 | . | 0.2% | 1.1 | . | .
NC(=O)COC(=O)c1ccc(NS(=O)(=O)c2ccc3c(c2)OCCO3)cc1 | . | -11 | 8% | -0.9% | 0.9 | -0.1 | 6
COc1cc(C2C=C(C(=O)O)Nc3ncnn32)ccc1O (configuration not stated) | 2.4% | -4 | . | 0.4% | -0.4 | . | .
CC(C)CN(C(=O)CN1CCc2ccccc21)c1c(N)n(CC(C)C)c(=O)[nH]c1=O | -1.4% | -7 | 5% | -1.8% | 1.9 | ? | 2
O=C(N/N=C/c1c(F)c(F)c(F)c(F)c1F)c1cccc(S(=O)(=O)N2CCOCC2)c1 | 1.4% | -10 | 16% | -0.2% | -0.1 | 0.0 | -1
CCOc1nc(-c2ccccc2)ccc1-c1noc(-c2ccco2)n1 | 35µM* | 1 | -6% | 6.3% | 4.9 | 0.4 | 8
Oc1c(Cl)cc(Cl)cc1CNc1ccccn1 | 1.0% | -5 | 3% | 4.7% | 1.5 | -3.5 | 26
CSCCC(NC(=O)c1ccccc1)C(=O)N(C)CC(=O)Nc1ccc(N2CCOCC2)cc1 (configuration not stated) | -1.4% | -14 | 5% | -0.1% | 0.4 | . | -20
COc1cc(CCC(=O)OCn2nnc3ccccc3c2=O)cc(OC)c1OC | -0.9% | 8 | 14% | -0.2% | 0.3 | 2.6 | -4
COc1ccc(C)cc1N(CC(=O)N1CCCC1)S(C)(=O)=O | -13% | 14 | 7% | -0.1% | 0.0 | 1.4 | 2
Cc1ccc(S(=O)(=O)NC(=O)Nc2cc(C)no2)cc1 | -0.6% | 51 | 16% | 2.4% | -0.4 | 1.6 | -16
COc1cc(C2C(Oc3ccccc3C)C(=O)N2Cc2ccc(F)cc2)cc(OC)c1OC (configuration not stated) | -2.4% | -6 | -9% | 1.4% | 0.2 | 3.3 | -5
C=CCSc1n[nH]c(-c2ccc(OCCC)cc2)n1 | 1.1% | 0 | -7% | 14%[38.3 µM] | 2.0 | 4.0 | -3
Cc1cc(C)nc(N2CCC(C(=O)NC3CC3)CC2)n1 | . | 9 | 20% | 1.7% | -0.5 | 0.7 | -8
O=C(CCCn1c(=O)c2ccccc2n(CC(=O)Nc2cccc(Cl)c2)c1=O)NCc1ccc2c(c1)OCO2 | -0.2% | 11 | . | 2.5% | -0.4 | . | .
CCOc1ccccc1OCC(=O)NC1CCCCC1 | 1.5% | -13 | 7% | . | -0.1 | -1.9 | -7

# A second format for part of the listing above.
# The line under a structure holds: ClpP mod	TRPML1 inh	Sfp PPTase inh	PINK1 modulator	TRPML1 ag	Menin-MLL FL inh	TRPV1 PAM
> O=C(N/N=C/c1cccc([N+](=O)[O-])c1)c1cc2c(ccc3ccccc32)o1
 : -4.2%	8	3%	10%	-0.3	-1.6	-7
> Cc1cn2c(=O)cc(COC(=O)c3cccc(NC(=O)c4ccc(C(C)(C)C)cc4)c3)nc2s1
 : -12%	6	.	0.2%	1.1	.	.

# Pulled one by one from the entries so far (6):
smiles | ClpP mod | TRPML1 inh | Sfp PPTase inh | PINK1 modulator | TRPML1 ag | Menin-MLL FL inh | TRPV1 PAM
CCOc1nc(-c2ccccc2)ccc1-c1noc(-c2ccco2)n1 | 35µM* | 1 | -6% | 6.3% | 4.9 | 0.4 | 8
O=C(N/N=C/c1c(F)c(F)c(F)c(F)c1F)c1cccc(S(=O)(=O)N2CCOCC2)c1 | 1.4% | -10 | 16% | -0.2% | -0.1 | 0.0 | -1
Cc1cc(C)nc(N2CCC(C(=O)NC3CC3)CC2)n1 | . | 9 | 20% | 1.7% | -0.5 | 0.7 | -8
CC(C)CN(C(=O)CN1CCc2ccccc21)c1c(N)n(CC(C)C)c(=O)[nH]c1=O | -1.4% | -7 | 5% | -1.8% | 1.9 | ? | 2
O=C(N/N=C/c1cccc([N+](=O)[O-])c1)c1cc2c(ccc3ccccc32)o1 | -4.2% | 8 | 3% | 10% | -0.3 | -1.6 | -7
COc1cc(C2C=C(C(=O)O)Nc3ncnn32)ccc1O (configuration not stated) | 2.4% | -4 | . | 0.4% | -0.4 | . | .

# More entries
smiles | ClpP mod | TRPML1 inh | Sfp PPTase inh | PINK1 modulator | TRPML1 ag | Menin-MLL FL inh | TRPV1 PAM
COc1ccc(-n2cc(-c3ccccc3)c3c(N4CCN(CCO)CC4)ncnc32)cc1 | -9.0% | -15 | ? | -3.9%[38.3 µM] | -0.1 | 2.3 | -10
Cc1oc(-c2ccccc2Cl)nc1Cn1c(SCc2cccc(F)c2)nc2cccnc21 | 4.6% | 29 | . | 2.4% | 1.0 | . | .
Nc1ncc(Br)cc1S(=O)(=O)Nc1cc(C(F)(F)F)cc(C(F)(F)F)c1 | . | 37 | 22% | ? | 0.4 | . | 10
COc1ccc(C(=O)n2nc(C#N)c(C#N)c2N)cc1 | 0.7% | -16 | 5% | -0.7% | 0.8 | 1.7 | 27
O=C1CCC(C(=O)N2CCCCCC2)CN1Cc1cccc(C(F)(F)F)c1 (configuration not stated) | -1.6% | -11 | 18% | 1.3% | 0.5 | 1.2 | -17
Cc1ccc(C2NC(c3ccc(C)cc3)C([N+](=O)[O-])C(C)(C)C2[N+](=O)[O-])cc1 (configuration not stated) | . | 23 | 15% | 3.2% | 2.8 | 0.4 | -18
CCNc1nc(SC(C)C(=O)OC)nc(N(C)C)n1 (configuration not stated) | -1.5% | 1 | 7% | -0.7% | -0.2 | -3.0 | 2
CCC(=O)Nc1ccc(NC(=O)CSc2nnnn2C(C)C)cc1 | -3.2% | -14 | 13% | -0.4% | -0.2 | 4.2 | 4
CCCn1nnc(NC(=O)c2ccccc2Cl)n1 | -0.4% | -8 | 8% | . | 0.7 | 4.6 | -6
COc1ccccc1N(CC(=O)Nc1ccccc1C(=O)NCC(C)C)S(C)(=O)=O | -4.7% | -6 | -4% | . | 0.2 | -0.1 | 9
COc1ccc(C2/C=C\CN(Cc3ccccc3)CC(=O)N2Cc2ccc(F)cc2)cc1 (configuration not stated) | . | 63 | ? | . | 2.0 | ? | .
